A1 inhib: blocks A1 activity; caspase activation, % (test concentration not listed); MEF A1-2A-BIM cells, caspase-Glo luminescence, 3 h; percent of clofoctol signal, DMSO as zero; AID 2241; actives 0.51% (n = 21,000);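 active = most replicate scores above 10, or exactly half above 10 with mean activity above 10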;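 note: effector caspase 3 and 7 activity cleaving a DEVD luciferin substrate; 50 nL library stock added to about 30 µL; numbers are from one replicate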
BJeLR viab HTS: BJeLR cell viability reduction; BJeLR fibroblasts viability, CellTiterGlo ATP luminescence, 48 h; HRASV12, hTERT and SV40 LT/ST transformed; viability loss activity score, % (test concentration not listed); actives 0.64% (n = 30,000); AID 2275; in the data active = viability loss activity score above about 50%; about a fifth of its hits are not listed in these tables;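 note: higher score means fewer live cells and less ATP luminescence; stock transfer was 50 or 100 nL into about 30 µL; 0% = vehicle wells and 100% = a reference killing control; one replicate is shown; the record names a cut of 85%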
Numbers without * were called inactive; · = no result given. This is a subset; rates above refer to the full screens.

The opening seven entries as a preview:
SMILES	A1 inhib	BJeLR viab HTS
C[C@@H]1CN([C@@H](C)CO)C(=O)c2cc(NC(=O)NC3CCCCC3)ccc2O[C@@H]1CN(C)CC1CCCCC1	-0.5	2.5
Cc1noc(C)c1NC(=O)Nc1cccc2c1O[C@H](CN(C)S(=O)(=O)c1cccs1)[C@@H](C)CN([C@H](C)CO)C2=O	·	-5.5
C[C@@H]1CN([C@H](C)CO)C(=O)c2cc(NC(=O)C3CC3)ccc2O[C@H]1CN(C)Cc1ccc(C(=O)Nc2ccccc2N)cc1	·	2.8
CC(C)NC(=O)Nc1ccc2c(c1)C(=O)N([C@@H](C)CO)C[C@H](C)[C@@H](CN(C)Cc1ccc3c(c1)OCO3)O2	-0.6	0.3
COc1cccc(-n2c(=O)c3sccc3n(Cc3ccc(C(C)(C)C)cc3)c2=O)c1	·	-2.6
COc1ccc(NC(=O)CCCn2c(=O)c3sccc3n(CC(=O)C(C)(C)C)c2=O)cc1	·	-4.1
C[C@H](CO)N1C[C@H](C)[C@H](CN(C)S(=O)(=O)c2ccc(F)cc2)Oc2ccc(NC(=O)Nc3cccc4ccccc34)cc2C1=O	-0.3	-7.9

The listing, repeating the preview:
SMILES	A1 inhib	BJeLR viab HTS
C[C@@H]1CN([C@@H](C)CO)C(=O)c2cc(NC(=O)NC3CCCCC3)ccc2O[C@@H]1CN(C)CC1CCCCC1	-0.5	2.5
Cc1noc(C)c1NC(=O)Nc1cccc2c1O[C@H](CN(C)S(=O)(=O)c1cccs1)[C@@H](C)CN([C@H](C)CO)C2=O	·	-5.5
C[C@@H]1CN([C@H](C)CO)C(=O)c2cc(NC(=O)C3CC3)ccc2O[C@H]1CN(C)Cc1ccc(C(=O)Nc2ccccc2N)cc1	·	2.8
CC(C)NC(=O)Nc1ccc2c(c1)C(=O)N([C@@H](C)CO)C[C@H](C)[C@@H](CN(C)Cc1ccc3c(c1)OCO3)O2	-0.6	0.3
COc1cccc(-n2c(=O)c3sccc3n(Cc3ccc(C(C)(C)C)cc3)c2=O)c1	·	-2.6
COc1ccc(NC(=O)CCCn2c(=O)c3sccc3n(CC(=O)C(C)(C)C)c2=O)cc1	·	-4.1
C[C@H](CO)N1C[C@H](C)[C@H](CN(C)S(=O)(=O)c2ccc(F)cc2)Oc2ccc(NC(=O)Nc3cccc4ccccc34)cc2C1=O	-0.3	-7.9
O=C(Cn1cnc2c(oc3ccccc32)c1=O)Nc1ccccc1F	-0.1	-2.1
C[C@H](CO)N1C[C@H](C)[C@H](CN(C)CC2CCCCC2)Oc2ccc(NS(C)(=O)=O)cc2C1=O	-0.4	1.9
C[C@H](CO)N1C[C@H](C)[C@H](CN(C)C(=O)Nc2cccc3ccccc23)Oc2c(NS(=O)(=O)c3ccc(Cl)cc3)cccc2C1=O	·	2.2
C[C@@H]1CN([C@@H](C)CO)C(=O)c2cccc(NS(=O)(=O)c3ccc(F)cc3)c2O[C@H]1CN(C)C(=O)Nc1ccc(F)cc1	·	-6.6
Cc1ccc(NC(NC(=O)c2cccs2)C(=O)c2ccccc2)cc1 (stereo not given)	1.0	8.2
Cc1ccc(S(=O)(=O)N(C)C[C@@H]2Oc3ccc(NC(=O)CCC(F)(F)F)cc3C(=O)N([C@H](C)CO)C[C@@H]2C)cc1	-0.4	0.8
O=C(c1ccc(Cl)cc1)n1c(=O)oc2cc(Cl)ccc21	-0.1	-3.5
COc1ccc(CN(C)C[C@H]2Oc3c(NC(=O)c4nc5ccccc5s4)cccc3C(=O)N([C@H](C)CO)C[C@@H]2C)cc1	·	-0.3
COc1ccc(S(=O)(=O)N(C)C[C@@H]2Oc3ccc(NC(=O)Cc4cn(C)c5ccccc45)cc3C(=O)N([C@@H](C)CO)C[C@@H]2C)cc1	0.0	0.9
CC1CC(C)(C)N(C(=O)c2ccccc2F)c2ccccc21 (stereo not given)	·	-5.0
O=C1Nc2ccccc2-c2nc3ccccc3c(=O)n2-c2c(O)cccc21	-0.8	15
C[C@H](CO)N1C[C@H](C)[C@H](CN(C)C(=O)NC2CCCCC2)Oc2c(NC(=O)Nc3ccc(F)cc3)cccc2C1=O	·	0.7
O=C(c1ccc(O)cc1)N1Cc2ccccc2NC1=S	-4.7	6.2
Cc1cccc(CN2C(=O)/C(=C\c3ccc(C(=O)N4CCCC4)cc3)Oc3ccccc32)c1	-2.6	7.3
O=C(CSc1nnc(COc2ccccc2)o1)NCc1ccccc1	0.5	-0.8
COC(=O)c1ccc(C=Nc2ccc3oc(-c4ccc(C)cc4)nc3c2)cc1	-2.7	-0.3
CCOc1ccc(NC(=O)[C@H](C(C)CC)N2Cc3ccccc3C2=O)cc1 (stereo not given in full)	·	5.6
Cc1cc(C)n(CCc2nc3c4ccccc4nc(=S)n3[nH]2)n1	-0.2	0.8
CC(C)NC(=O)N(C)C[C@H]1Oc2ccc(NS(=O)(=O)c3cccs3)cc2C(=O)N([C@@H](C)CO)C[C@H]1C	1.0	11
Clc1ccc(-c2onc3cc(-c4ccccc4)ccc23)cc1	-0.4	2.4
COc1ccc(S(=O)(=O)Nc2ccc3c(c2)C(=O)N([C@@H](C)CO)C[C@@H](C)[C@@H](CN(C)Cc2ccc(-c4ccccc4)cc2)O3)cc1	1.0	-4.8
C[C@H]1CN([C@@H](C)CO)C(=O)c2cc(NC(=O)CCC(F)(F)F)ccc2O[C@H]1CN(C)Cc1ccc(Oc2ccccc2)cc1	0.1	-1.3
O=c1c(C(F)(F)F)cccn1CCc1nc(-c2ccccc2)cs1	-0.6	6.6
C[C@H](CO)N1C[C@H](C)[C@H](CN(C)Cc2ccccc2)Oc2c(NS(=O)(=O)c3cccs3)cccc2C1=O	·	-3.2
C[C@@H]1CN([C@@H](C)CO)C(=O)c2cccc(NC(=O)c3ccc(-c4nccs4)cc3)c2O[C@@H]1CN(C)Cc1ccc2c(c1)OCO2	·	-5.8
CC(C)c1cc(C(C)C)c(S(=O)(=O)NCCC(=O)O)c(C(C)C)c1	-1.1	5.3
C[C@H]1CN([C@@H](C)CO)C(=O)c2cccc(NC(=O)Nc3ccccc3)c2O[C@@H]1CN(C)Cc1ccc2c(c1)OCO2	·	1.3
Cc1cccn2cc(CNS(=O)(=O)c3cccc(F)c3)nc12	-0.7	1.6
CCOC(=O)c1cnc2ccc(OCC)cc2c1NCCCN1CCOCC1	0.0	3.1
CCCCCCN(CCCCCC)C(=O)Cc1c(-c2ccc(F)cc2)[nH]c2ccccc12	-0.7	1.6
CNC[C@@H]1Oc2ccc(NC(=O)NC3CCCCC3)cc2C(=O)N([C@@H](C)CO)C[C@@H]1C	0.3	2.9
C[C@@H]1CN([C@H](C)CO)C(=O)c2cc(NC(=O)Nc3ccc(C(F)(F)F)cc3)ccc2O[C@H]1CN(C)C(=O)Nc1ccc(C(F)(F)F)cc1	0.4	1.5
Cc1ccc(S(=O)(=O)Nc2cccc3c2O[C@@H](CN(C)Cc2ccc(C(F)(F)F)cc2)[C@H](C)CN([C@@H](C)CO)C3=O)cc1	·	2.2
O=c1[nH]c2cc(Cl)ccc2c(-c2ccccc2)c1SC1=NCCS1	-1.0	-0.3
C[C@@H]1CN([C@H](C)CO)C(=O)c2cccc(NC(=O)Nc3ccc(F)cc3)c2O[C@@H]1CN(C)Cc1ccncc1	·	4.8
C[C@@H]1CN([C@H](C)CO)C(=O)c2cccc(NC(=O)Nc3ccccc3)c2O[C@H]1CN(C)S(=O)(=O)c1ccc(F)cc1	·	-1.8
Cc1ccc(N2CCN(C(=S)c3ccc(N(C)C)cc3)CC2)cc1	·	8.4
O=C(NCCN1CCN(c2ccccc2F)CC1)C1CCCN(S(=O)(=O)c2cnc[nH]2)C1 (stereo not given)	·	3.5
COc1cccc2ccc(Cl)nc12	-1.3	1.7
C[C@H]1CN([C@@H](C)CO)C(=O)c2cccc(NC(=O)c3ccncc3)c2O[C@H]1CN(C)C(=O)Nc1ccccc1	·	-1.6
C[C@H](CO)N1C[C@H](C)[C@@H](CN(C)S(=O)(=O)c2ccccc2)Oc2ccc(NC(=O)C3CC3)cc2C1=O	0.9	-3.6
O=C(Nc1ccccc1)Nc1ccc(Oc2ncnc3cc(Cl)ccc23)nc1	-0.2	-1.9
C[C@@H]1CN([C@H](C)CO)C(=O)c2cc(NC(=O)C3CC3)ccc2O[C@H]1CN(C)S(=O)(=O)c1ccc(F)cc1	-0.2	0.3
New compounds follow
SMILES	A1 inhib	BJeLR viab HTS
O=S(=O)(/C=C/c1ccccc1)N1C=Cc2ccccc2C1c1c[nH]c2ccccc12 (stereo not given)	-1.0	8.2
C[C@@H]1CN([C@@H](C)CO)C(=O)c2cc(NS(=O)(=O)c3ccc(Cl)cc3)ccc2O[C@@H]1CN(C)S(=O)(=O)c1cccs1	0.4	-3.1
CN1C(=O)COc2ccc(C(=O)c3ccccc3C(=O)O)cc21	0.1	1.9
C[C@@H]1CN([C@@H](C)CO)C(=O)c2cc(NC(=O)Cc3cn(C)c4ccccc34)ccc2O[C@@H]1CN(C)S(=O)(=O)c1ccc(Cl)cc1	-0.4	0.3
CCOc1ccc(NC(=O)N(CCC(C)C)C(C)c2cccs2)cc1 (stereo not given)	-0.4	-4.3
COc1ccc(S(=O)(=O)Nc2cccc3c2O[C@H](CN(C)Cc2ccc(-c4ccccc4)cc2)[C@@H](C)CN([C@H](C)CO)C3=O)cc1	·	-2.1
COc1c(O)cc2c(c1O)C(=O)OC(C)C(O)c1c(O)c(O)c(OC)c(O)c1C(=O)OC(C)C2O (stereo not given)	1.5	-9.5
COC(=O)c1cc(N2CCNCC2)nc2ccccc12	0.7	-0.1
CCOC(=O)c1cccnc1SCC(=O)Nc1ccc(C)cc1	-0.4	-2.9
CCc1ccc(NC(=O)CSc2nc3ccccc3c(=O)n2CCCC(=O)N2CCCC2)cc1	-0.5	8.2
CCOC(=O)c1ccc(NC(=O)CSC2=NC(=O)C(CC)C(=O)N2)cc1 (stereo not given)	-0.7	-2.8
C[C@H](CO)N1C[C@H](C)[C@@H](CN(C)S(=O)(=O)c2ccc(Cl)cc2)Oc2ccc(NC(=O)Nc3ccccc3)cc2C1=O	0.2	-1.9
C[C@@H]1CN([C@@H](C)CO)C(=O)c2cccc(NC(=O)C3CC3)c2O[C@H]1CN(C)C(=O)Nc1cccc2ccccc12	·	1.5
CCCCCCCCCC(O)C(C)C(O)C(/C=C(\C)C1=CC(=O)C(C)CO1)CO (stereo not given)	-0.4	5.2
Cc1noc(C)c1NC(=O)N(C)C[C@@H]1Oc2c(NS(=O)(=O)c3ccc(Cl)cc3)cccc2C(=O)N([C@H](C)CO)C[C@@H]1C	·	4.4
CC1CCc2cc(F)ccc2N1C(=O)Nc1ccc(F)cc1 (stereo not given)	0.4	3.5
C[C@H](CO)N1C[C@H](C)[C@@H](CN(C)C(=O)NC2CCCCC2)Oc2ccc(NC(=O)CCCN(C)C)cc2C1=O	-0.4	0.3
Cc1cc(C(=O)Nc2cccc3c2O[C@@H](CN(C)Cc2ccncc2)[C@H](C)CN([C@@H](C)CO)C3=O)n(C)n1	·	4.4
Clc1ccc2c(c1)C(N1CCNCC1)=Nc1ccccc1O2	0.6	-3.7
COc1ccc(S(=O)(=O)N(C)C[C@H]2Oc3c(NS(=O)(=O)c4cccs4)cccc3C(=O)N([C@H](C)CO)C[C@@H]2C)cc1	·	-6.7
COc1ccccc1S(=O)Cc1ccc(C(=O)O)o1 (stereo not given)	0.8	0.2
Cc1cccc(C)c1NC1OC(=O)c2ccccc21 (stereo not given)	·	2.3
C[C@H]1CN([C@@H](C)CO)C(=O)c2cccc(NC(=O)c3cnccn3)c2O[C@@H]1CN(C)Cc1ccc(Cl)c(Cl)c1	·	-3.3
Cc1ccc2[nH]c(=O)c(-c3noc(C(C)(C)C)n3)cc2c1	·	-3.0
O=C(CCCC1=NS(=O)(=O)c2ccccc2N1)N1CCCCCC1	-0.5	1.5
COc1ccc(N=C2SCC(c3ccc(C)cc3)=NN2CCO)cc1	·	-9.3
CC(C)Cn1c(SCC(=O)Nc2ccc(F)cc2F)nc2ccccc2c1=O	-0.1	-4.4
CCCC(=O)Nc1nc2c(ncn2C2O[C@H]3COP(=O)(O)O[C@@H]3[C@@H]2OC(=O)CCC)c(=O)[nH]1 (stereo not given in full)	-0.9	-4.0
COc1ccc(CN(C)C[C@@H]2Oc3ccc(NC(=O)CCN4CCOCC4)cc3C(=O)N([C@@H](C)CO)C[C@H]2C)cc1	0.4	-1.4
Cc1c(C)c(C)c(C(=O)c2ccccc2C(=O)NN)c(C)c1C	-0.7	-2.3
CC(C)NC(=O)N(C)C[C@@H]1Oc2c(NC(=O)c3ccc(-c4nccs4)cc3)cccc2C(=O)N([C@@H](C)CO)C[C@@H]1C	·	-3.9
C[C@H]1CN([C@@H](C)CO)C(=O)c2cccc(NC(=O)Nc3ccc(F)cc3)c2O[C@@H]1CN(C)CC1CC1	·	6.9
FC(F)(F)Oc1ccccc1NC(=S)NCc1ccc2c(c1)CCO2	0.1	-5.8
CN(C)c1nc2cc(Cl)ccc2o1	0.0	2.2
O=C(O)c1nccnc1C(=O)NC1CCN(Cc2c(F)cccc2Cl)CC1	0.2	-3.7
O=C(O)C1CCC(CNCc2c(Cl)cccc2Cl)CC1 (stereo not given)	1.1	0.0
C[C@@H]1CN([C@@H](C)CO)C(=O)c2cccc(NC(=O)Nc3ccc(C(F)(F)F)cc3)c2O[C@@H]1CN(C)Cc1ccccc1	·	-0.4
CCCCS(=O)(=O)/C=C/C1C2C=CC(C2)C1S(=O)(=O)CCCC (stereo not given)	0.7	-1.3

Source: PubChem (Broad Institute)
